High-throughput results (PubChem BioAssay)
FGF22 binding = binders of recombinant human FGF22 by thermal shift; SYPRO orange fluorescence; percent of sucrose octasulfate shift, DMSO zero; Q9HCT0; AID 651658; 1.5% of 340,000 active; calls only at 9.99 µM;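 active = melting point raised past a set limit in the mean and every replicate; inconclusive = no clear call; three in four hits are not shown here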
Target sequence (Q9HCT0 whole entry, looked up): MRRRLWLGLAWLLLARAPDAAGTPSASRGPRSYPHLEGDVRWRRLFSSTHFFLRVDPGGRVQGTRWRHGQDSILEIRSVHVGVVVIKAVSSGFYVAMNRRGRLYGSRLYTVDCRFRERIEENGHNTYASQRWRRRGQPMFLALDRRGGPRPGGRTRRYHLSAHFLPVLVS
UCH37 inh = blocks the human deubiquitinase UCH37; inhibition, % (concentration not given with the values); Q9Y5K5; 0.33% of 330,000 active; purified proteasome/UCH37, Ub-AMC cleavage fluorescence;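 active = mean of two replicates above 20%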;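 also: 0% = compound-free wells with enzyme and 100% = wells lacking proteasome; stock transfer was 100 nL into about 20 µL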
Target sequence (Q9Y5K5 whole entry, looked up): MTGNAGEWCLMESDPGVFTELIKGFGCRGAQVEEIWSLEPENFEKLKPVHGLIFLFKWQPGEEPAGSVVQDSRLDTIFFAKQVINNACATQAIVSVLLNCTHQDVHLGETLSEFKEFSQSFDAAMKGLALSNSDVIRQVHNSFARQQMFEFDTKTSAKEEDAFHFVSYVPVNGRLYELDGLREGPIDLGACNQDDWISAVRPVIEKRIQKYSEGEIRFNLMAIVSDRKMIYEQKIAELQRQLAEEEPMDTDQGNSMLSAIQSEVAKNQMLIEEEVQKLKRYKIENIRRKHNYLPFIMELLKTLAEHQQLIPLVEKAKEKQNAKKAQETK
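Test system – human UCH37 enzyme supplied as purified proteasome complex · Incubation – 30 min preincubation with enzyme, 25 min cleavage at room temperature · Detection – AMC fluorescence from Ub-AMC cleavage, excitation 355 nm, emission 460 nm · Benchmarks – no-proteasome wells (full inhibition) and compound-free wells (no inhibition)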
RanGTP-Impb inh = inhibitors of RanGTP-importin-beta interaction, primary screen, biochemical, FRET, CFP-Ran, YFP-importin-beta, homogeneous. cell-free CFP-Ran/YFP-importin-beta FRET ratio. inhibition, % (concentration not given with the values). 1.1% of 300,000 active;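 active = most replicates above 15%; inconclusive = exactly half above 15%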;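 also: 0% = DMSO wells and 100% = Ran loaded with GDP instead of GTP; wells of about 40 µL received 100 nL stock; the first replicate is given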
HNF4A DNA FP = change in binding of human HNF4 alpha to DNA | P41235 | HNF4a-FITC DNA binding, fluorescence polarization, 1 h | activity change, % at 10 µM | 0.3% of 360,000 active; in the data active = activity change above about 30%, passing the limit was not always enough;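 also: controls were the assay level and a saturating level of protein; the project sought stronger binding though the title names inhibitors; some compounds called inactive have numbers as strong as hits; positive values seem to mean higher polarization but the record does not say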
Target sequence (P41235 whole entry, looked up): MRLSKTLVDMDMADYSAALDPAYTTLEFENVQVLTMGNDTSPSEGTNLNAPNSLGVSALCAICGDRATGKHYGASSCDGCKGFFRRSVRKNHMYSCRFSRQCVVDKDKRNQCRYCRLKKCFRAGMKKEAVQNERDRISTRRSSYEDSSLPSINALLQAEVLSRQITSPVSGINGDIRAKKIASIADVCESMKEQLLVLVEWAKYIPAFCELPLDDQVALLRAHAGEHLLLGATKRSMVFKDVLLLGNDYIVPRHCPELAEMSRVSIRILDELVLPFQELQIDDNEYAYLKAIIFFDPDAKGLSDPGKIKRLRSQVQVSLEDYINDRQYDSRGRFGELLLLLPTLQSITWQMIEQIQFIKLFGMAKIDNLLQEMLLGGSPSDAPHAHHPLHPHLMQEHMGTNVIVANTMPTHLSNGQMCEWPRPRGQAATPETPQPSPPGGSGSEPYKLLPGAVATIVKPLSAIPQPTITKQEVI
Vif TR-FRET = HIV-1 Vif–A3G interaction blockers – biochemical, TR-FRET, GST-Vif 1-94, biotin-A3G peptide, dose response retest, primary screen (AID 1117319) | TR-FRET GST-Vif / biotin-A3G peptide binding; higher % means a stronger effect; test concentration not given here; strong numbers were not always called active | inhibition, %, or IC50 in µM where a hit was titrated | 0.57% of 260,000 active;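 active = above the screen mean plus three standard deviations and confirmed in dose response; inconclusive = results disagree or hit not tested in dose response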;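 also: Vif residues 1-94 fused to GST binding biotinylated APOBEC3G peptide 110-148; 0% = full assay without inhibitor and 100% = GST in place of GST-Vif; retest series ran down from 100 µM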
Ecoli growth = inhibitors of Escherichia coli growth; 0.21% of 330,000 active; OD600 absorbance (concentration not given with the values); OD600, 23 h; hits give low values; AID 1053175;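 active = OD600 absorbance below the run mean of sample wells minus 3.6 SD, in any replicate, cut at about 0.56 in these data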;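 also: stock transfer was 300 nL into about 60 µL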
MLL AF4-AF9 inh = MLL-AF4/AF9 protein interaction inhibition; 0.47% of 350,000 active; inhibition, % at 10 µM; AID 651704; AlphaScreen, biotin-AF4 peptide binding to FLAG-AF9; P42568;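 active = every replicate reaching a set inhibition limit, whatever the replicate mean, cut at about 25% in these data; inconclusive = mean inhibition reaches that limit but some replicates miss it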;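 also: 0% = plate neutral control median and 100% = total signal loss; the record names both 10 and 1 µM as test concentration; the first replicate is given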
* hit, by the source's call; i = inactive; ? = inconclusive; . = no result given.

SMILES | FGF22 binding | UCH37 inh | RanGTP-Impb inh | HNF4A DNA FP | Vif TR-FRET | Ecoli growth | MLL AF4-AF9 inh
OC1(c2ccccc2)Cc2cccc[n+]2C1c1ccccc1 (stereo unspecified) | i | -0.7 | -0.6 | 1.7 | -1.9% | 0.654 | .
CCOC(=O)N1CCN(S(=O)(=O)c2ccc3c(c2)SCC(=O)N3)CC1 | . | 1.6 | 9.7 | -2.6 | ? | 0.694 | .
O=C(CSc1nnc(CCc2ccccc2)n1-c1ccc(Cl)cc1)c1ccccc1 | . | -0.6 | 4.6 | -0.9 | . | 0.71 | .
Cc1c(N(C)C(=O)c2ccc3c(c2)OCO3)c(=O)n(-c2ccccc2)n1C | . | 1.6 | 2.0 | -2.6 | 4.0% | 0.692 | .
COc1ccc(/C=C(\C#N)C(=O)NC2CCS(=O)(=O)C2)cc1OC (stereo unspecified) | . | 2.1 | 5.1 | 2.1 | -8.6% | 0.711 | .
CC(C)(C)c1cc(P(=O)(c2ccccc2)c2ccccc2)ccc1O | i | 0.6 | -0.9 | -1.6 | 0.2% | 0.659 | -1.1
CCn1c(CN2CCOCC2)nnc1SCC(=O)Nc1ccc(C(C)=O)cc1 | i | 2.6 | 0.0 | 2.4 | -2.0% | 0.703 | 1.2
CCOC(=O)c1ccc(P(=O)(c2ccccc2)c2ccccc2)cc1 | i | 2.7 | 0.5 | 0.5 | . | 0.694 | -2.5
Cc1ccc(F)cc1NC(=O)CCc1c(C)[nH]c(=O)c(C#N)c1C | i | -2.0 | 5.6 | 7.0 | . | 0.7 | -4.7
COCCNC(=O)C1(C)CCCN(C(=O)c2ccc(F)cc2Cl)C1 (stereo unspecified) | i | . | . | -1.3 | . | . | -0.4
Cc1cn([C@H]2C[C@H](O)[C@@H](CNCc3ccccc3OCCCN3CCOCC3)O2)c(=O)[nH]c1=O | i | . | . | 4.9 | -1.3% | . | 0.0
Oc1c(N=Nc2nn[nH]n2)ccc2ccccc12 | i | . | . | -26.1 | . | . | 3.0
CC1CC(C)CN(CCCNC(=O)C2CCN(S(=O)(=O)N3CCCCC3)CC2)C1 (stereo unspecified) | . | 1.7 | 3.7 | 3.2 | 28.8% | 0.637 | 1.4
Cc1cc(C)cc(N(CCC#N)C(=O)COC(=O)CCc2c[nH]c3ccccc23)c1 | i | 2.9 | . | 8.5 | -1.1% | 0.63 | 3.8
COc1ccc(NC(=O)CN(C)C(=O)c2ccc3[nH]c4c(c3c2)CC(C)CC4)cc1 (stereo unspecified) | i | 3.7 | 7.2 | 4.0 | 9.1% | 0.661 | -13.6
CCC(c1nnnn1-c1ccc(OC)cc1)N1CCN(C/C=C/c2ccccc2)CC1 (stereo unspecified) | i | . | . | 3.4 | . | . | 3.3
Nc1nonc1-n1nnc(C(=O)N/N=C/c2cccnc2)c1CSc1ccccc1 | i | . | 1.2 | -6.2 | . | . | -8.5
CCc1ccc2oc(=O)cc(CN3CCN(Cc4ccccc4)CC3)c2c1 | i | 0.9 | 2.5 | -2.9 | -6.4% | 0.611 | -5.1
c1ccc(NC2=NCCN2CC2CCCCC2)cc1 | i | 1.4 | . | -0.9 | . | 0.689 | 3.5
CCc1ccc(-c2c(C)sc(NC(=O)C3CCC3)c2C#N)cc1 | . | -2.9 | -3.0 | -0.7 | 3.5% | 0.71 | .
Cc1c(N/C(=N/S(=O)(=O)c2ccc(F)cc2)c2ccccc2)c(=O)n(-c2ccccc2)n1C | i | 3.0 | 2.3 | -1.4 | 0.7% | 0.668 | -0.6
O=C(c1cc(-c2ccncc2)nc2ccccc12)N1CCN(c2ccc(N3CCOCC3)nn2)CC1 | . | 4.8 | 4.1 | 1.8 | 9.2% | 0.677 | .
COc1cc(CNc2nc3ccccc3s2)cc(OC)c1OC | i | 4.9 | -1.5 | -2.9 | . | 0.682 | 1.8
COC(=O)c1ccnc(SCC(=O)c2ccccc2)c1 | i | 0.8 | 5.2 | -1.1 | -3.1% | 0.676 | -4.9
O=C(c1ccccc1F)N1CCN(Cc2ccc3c(c2)OCO3)CC1 | i | 0.2 | 0.4 | 3.4 | -8.3% | 0.617 | -1.9

Additional compounds:
SMILES | FGF22 binding | UCH37 inh | RanGTP-Impb inh | HNF4A DNA FP | Vif TR-FRET | Ecoli growth | MLL AF4-AF9 inh
NCCCC[C@H]1CNC(=O)C(=O)N1CCc1cccc2ccccc12 | i | 2.4 | 0.4 | 8.8 | 0.2% | . | -0.5
S=C(NCCc1ccccc1)N1CCCC1 | i | -0.2 | -0.8 | -5.2 | . | 0.657 | -3.8
COc1ccc(/C=C2\CCC(C3CCCC3)C2=O)cc1Cn1cccn1 (stereo unspecified) | i | 4.1 | 4.4 | 0.4 | -14.5% | 0.667 | -4.5
CN1CC[C@@H]2C(=O)N3CCc4ccc(Br)cc4[C@@H]3C[C@@H]21 | i | . | . | 1.9 | -8.3% | . | -0.1
N#CC1=C(N)C(C#N)(C#N)[C@H](c2ccncc2)[C@H]2CC3(CC=C12)OCCO3 | . | -7.5 | -25.5 | -4.5 | 4.5% | 0.703 | .
COc1ccc(CNC(=O)OC23CN(C(=O)OC(C)C)N(C(=O)OC(C)C)CC2(O)CN(S(=O)(=O)c2ccc(C)cc2)C3)cc1OC (stereo unspecified) | i | . | . | -1.2 | -7.4% | . | 3.1
CS(=O)(=O)N(CC(=O)NCc1ccccn1)Cc1ccc(Cl)cc1 | . | -0.4 | -3.7 | 6.6 | 26.7% | 0.777 | .
C/C(=N\NC(=O)CSc1nc2ccccc2o1)c1cccc(O)c1 | i | . | 0.3 | 4.1 | 30.2% | . | 0.2
O=C(O)CN1C(=O)NC2(CCCc3ccccc32)C1=O (stereo unspecified) | i | 0.6 | 0.3 | 2.6 | . | 0.708 | -0.6
FC(F)(F)c1ccc(CN2C[C@@H]3C(c4ccc(C(F)(F)F)cc4)C4(c5cccnc5)CC3(C4)[C@H]2c2ccccc2)cc1 (stereo partly specified) | i | 0.4 | ? | -4.8 | -1.0% | . | -2.4
CN1C(=O)C(=O)/C(=C(/O)c2ccccc2)C1c1ccc(Br)cc1 (stereo unspecified) | i | 12.7 | -2.4 | 2.8 | . | 0.714 | -3.7
CC(=O)NC(=C(Cl)Cl)S(=O)(=O)c1ccccc1 | . | 2.4 | ? | 0.7 | . | 0.697 | -0.8
Cc1nn(CSc2c(F)c(F)c(F)c(F)c2F)c(C)c1[N+](=O)[O-] | i | -0.8 | . | -4.6 | -1.5% | 0.678 | 1.3
CCOC(=O)c1c(NC(=O)Nc2ccccc2)sc(C)c1C | . | 0.3 | ? | -1.0 | 26.5% | 0.737 | .
O=C(c1ccccc1Cl)N1N=C(c2cccs2)CC1c1cccc(O)c1 (stereo unspecified) | i | 1.0 | -0.8 | -3.7 | 7.4% | 0.706 | 7.0
CCOC(=O)C1(Cc2ccccc2)CCN(Cc2cnn(C(C)C)c2)CC1 | i | 0.3 | -1.8 | -0.1 | 12.3% | 0.685 | -2.1
COc1ccc(Cl)cc1C(=O)OCC(=O)NC1CCCC(C)C1C (stereo unspecified) | i | 3.1 | . | -0.3 | 1.8% | 0.7 | -0.5
O=C1CC2(CCN(C(=O)c3ccc(F)cc3)CC2)Oc2ccccc21 | i | -46.5 | 3.3 | -1.1 | . | 0.648 | 0.4
CCOC(=O)Cc1csc(NC(=O)c2cc3c(s2)CCCC3)n1 | . | -4.8 | 4.1 | 12.0 | -0.1% | 0.694 | .
O=C(OC(C(=O)Nc1cccc(C(F)(F)F)c1)c1ccccc1)C1CCCCC1 (stereo unspecified) | . | 2.4 | . | 2.5 | -4.9% | 0.727 | .
CC(C)NCCCCOc1cccc(Br)c1 | . | 2.2 | 4.4 | 1.3 | 0.4% | 0.654 | .
COc1ccc(OC)c(Cc2cnc3nc(N)nc(N)c3c2C)c1 | i | . | . | 0.7 | 1.4% | . | 2.1
COc1ccc(C(C)C)cc1-c1cc(C(=O)NCc2cccc(C(F)(F)F)c2)[nH]n1 | i | . | . | 0.5 | . | . | -4.8
N#Cc1ccc(NC(=O)CNc2cc(S(=O)(=O)N3CCOCC3)ccc2NCC2CCCO2)cc1 (stereo unspecified) | . | 2.2 | ? | 0.9 | . | 0.705 | 1.8
Cc1cc(NC(=O)c2cc3ccccc3o2)cc(C)c1OCC(=O)N1CCOCC1 | . | 5.1 | 2.5 | -3.4 | 10.4% | 0.666 | .

Grouped by structure, those above containing a CF3 group (3)
SMILES | FGF22 binding | UCH37 inh | RanGTP-Impb inh | HNF4A DNA FP | Vif TR-FRET | Ecoli growth | MLL AF4-AF9 inh
FC(F)(F)c1ccc(CN2C[C@@H]3C(c4ccc(C(F)(F)F)cc4)C4(c5cccnc5)CC3(C4)[C@H]2c2ccccc2)cc1 (stereo partly specified) | i | 0.4 | ? | -4.8 | -1.0% | . | -2.4
O=C(OC(C(=O)Nc1cccc(C(F)(F)F)c1)c1ccccc1)C1CCCCC1 (stereo unspecified) | . | 2.4 | . | 2.5 | -4.9% | 0.727 | .
COc1ccc(C(C)C)cc1-c1cc(C(=O)NCc2cccc(C(F)(F)F)c2)[nH]n1 | i | . | . | 0.5 | . | . | -4.8

Later entries
SMILES | FGF22 binding | UCH37 inh | RanGTP-Impb inh | HNF4A DNA FP | Vif TR-FRET | Ecoli growth | MLL AF4-AF9 inh
CC/C(=N\NC(=O)c1nnn(-c2nonc2N)c1-c1cccs1)c1ccccc1 | i | . | 0.8 | 1.8 | . | . | -7.5
CCCNC(=O)c1oc2ccc3c(c2c1C)C(=O)CC(C)(C)O3 | . | -99.3 | 1.4 | -2.6 | -15.6% | 0.705 | .
Cc1cc(C)c(C)c(S(=O)(=O)N2CCC(C(=O)N3CCCCCCC3)CC2)c1C | i | 5.5 | -1.1 | -0.1 | -5.8% | 0.738 | -1.0
O=C(CS(=O)(=O)c1c[nH]c2ccccc12)N1CCCc2ccccc21 | i | 1.4 | 3.7 | 0.3 | 0.9% | 0.782 | 1.5
N#Cc1ccccc1S(=O)(=O)N1CCN(C(=O)C2CCC2)CC1 | i | 6.6 | . | 1.1 | -6.5% | 0.701 | -0.7
CCC(C)(C#CCN1CCCCC1)OC(C)=O (stereo unspecified) | i | 0.3 | 0.0 | -0.6 | . | 0.674 | 1.1
CC(C)(C)n1cn[nH]c1=S | i | 2.5 | 1.1 | -1.7 | -0.2% | 0.702 | -0.7
COc1ccc(C(C)=O)cc1COC(=O)c1cc(C)nc2ccccc12 | i | 5.0 | -1.2 | 2.7 | . | 0.698 | 0.5
O=C(O)c1cccc(-n2cccc2/C=N/O)c1 | . | . | 0.3 | -21.8 | ? | . | .
CC(C)C(NC(=O)C1CCCCC1)C(=O)N1CCN(c2ccc(F)cc2)CC1 (stereo unspecified) | . | -1.4 | -2.1 | 2.7 | ? | 0.717 | .
Cn1c(=O)[nH]c(NCCc2ccc(O)cc2)c([N+](=O)[O-])c1=O | i | 13.6 | -5.9 | -1.9 | . | 0.672 | -1.0
O=C(O)c1cccnc1SCc1cn2cc(Br)ccc2n1 | i | 1.9 | -3.8 | -2.9 | -5.8% | 0.717 | -1.7
Cn1cc(C(=O)N2CCN(c3cccc(Cl)c3)CC2)c(=O)c2cc(S(=O)(=O)N3CCOCC3)ccc21 | i | 1.5 | 1.1 | 1.1 | . | 0.633 | 2.3
Cc1nc2ccccc2n2c(-c3ccccc3)c3c(=O)n(C)c(=O)n(C)c3c12 | . | -20.6 | -2.2 | 1.9 | -0.9% | 0.71 | .
CCN1CCS/C1=C/C=C/C1=[N+](CC)CCS1 | . | 18.6 | -2.8 | 14.7 | -8.7% | 0.666 | .
Cc1ccc(N=C2NC(=O)/C(=C/c3cccn3C)S2)c(C)c1 | i | 3.8 | 5.9 | 0.9 | -3.1% | 0.733 | 4.1
CCN(c1ccccc1)S(=O)(=O)c1ccc2c(c1)CCCN2C(C)=O | i | 4.5 | 1.0 | -2.8 | . | 0.65 | -2.0
O=C(Nc1ccc(CSc2ccccc2)cc1)c1ccco1 | i | -1.8 | . | 4.3 | -3.1% | 0.683 | -1.2

A portion of the library; count on the stated rates, not on these rows.
